Source: PubChem BioAssay (several laboratories)
AF4-AF9 inh: MLL-AF4/AF9 protein interaction inhibition; P42568; actives 0.47% (n = 350,000); AID 651704; AlphaScreen, biotin-AF4 peptide binding to FLAG-AF9; inhibition, % at 10 µM;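 active = every replicate reaching a set inhibition limit, whatever the replicate mean, cut at about 25% in these data; inconclusive = mean inhibition reaches that limit but some replicates miss it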;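 also: 0% = plate neutral control median and 100% = total signal loss; the record names both 10 and 1 µM as test concentration; the first replicate is given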
Target sequence (P42568 whole entry, looked up): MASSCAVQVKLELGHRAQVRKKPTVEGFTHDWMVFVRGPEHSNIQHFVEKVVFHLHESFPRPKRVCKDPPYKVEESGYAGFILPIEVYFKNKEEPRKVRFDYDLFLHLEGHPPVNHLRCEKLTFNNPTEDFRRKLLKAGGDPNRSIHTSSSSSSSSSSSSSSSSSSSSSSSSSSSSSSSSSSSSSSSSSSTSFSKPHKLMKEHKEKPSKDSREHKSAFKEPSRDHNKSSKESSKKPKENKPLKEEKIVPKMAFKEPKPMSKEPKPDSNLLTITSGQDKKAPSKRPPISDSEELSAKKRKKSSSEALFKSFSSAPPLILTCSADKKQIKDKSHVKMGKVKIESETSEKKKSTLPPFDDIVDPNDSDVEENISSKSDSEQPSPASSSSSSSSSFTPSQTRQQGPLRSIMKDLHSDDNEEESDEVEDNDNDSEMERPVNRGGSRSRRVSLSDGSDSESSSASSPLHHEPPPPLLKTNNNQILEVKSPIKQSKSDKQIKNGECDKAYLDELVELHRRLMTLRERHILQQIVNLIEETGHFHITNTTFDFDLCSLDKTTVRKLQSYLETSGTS
Ecoli rRNA inh: inhibitors of bacterial rRNA selective over humanized ribosomes; AID 720706; GFP signal change (wild-type ribosome), % (concentration not given with the values); actives 1.6% (n = 350,000); E. coli WT GFP vs humanized-ribosome RFP mutants, fluorescence, 24 h; stronger effect = lower value; DMSO median 0, no signal -100;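 active = significant combined selectivity score with lowered wild-type GFP, culture density cut under 30%, mutant RFP and density less affected; inactive = any of these conditions unmet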; also: one replicate is shown; some compounds called inactive have numbers as strong as hits
A1 inh: inhibitors of the anti-apoptotic protein A1, read as caspase activation | MEF A1-2A-BIM cells, Caspase-Glo 3/7 luminescence, 3 h; percent of clofoctol response, vehicle zero | caspase activation, % (concentration not given with the values) | actives 0.066% (n = 330,000);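 active = over half of replicate activation scores above 10%, or exactly half above 10 with the replicate mean above 10; inconclusive = replicate mean below 10 yet half the replicates above 10; inactive = over half of replicates below 10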;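 also: wells of about 30 µL received 50 nL stock; many hits fall short of the cut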
UCH37 inh: blocks the human deubiquitinase UCH37 | Q9Y5K5 | purified proteasome/UCH37, Ub-AMC cleavage fluorescence | inhibition, % (test concentration not listed) | actives 0.33% (n = 330,000);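 active = mean of two replicates above 20%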;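 also: 0% = compound-free wells with enzyme and 100% = wells lacking proteasome; stock transfer was 100 nL into about 20 µL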
Target sequence (Q9Y5K5 whole entry, looked up): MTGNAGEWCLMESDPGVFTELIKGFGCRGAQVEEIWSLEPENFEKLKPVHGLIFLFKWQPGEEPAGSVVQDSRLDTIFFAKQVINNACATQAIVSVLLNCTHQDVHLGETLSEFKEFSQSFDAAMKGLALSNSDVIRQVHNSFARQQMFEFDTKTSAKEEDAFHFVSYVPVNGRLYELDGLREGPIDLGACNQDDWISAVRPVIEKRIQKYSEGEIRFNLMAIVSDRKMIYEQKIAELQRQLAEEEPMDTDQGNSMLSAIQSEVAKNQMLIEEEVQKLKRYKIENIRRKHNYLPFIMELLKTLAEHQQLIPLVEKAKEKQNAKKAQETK
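Assay system: Proteasome-bound UCH37. Buffer or medium: pH 7.4 Tris-HCl (50 mM) with ovalbumin, ATP-MgCl2, DTT. Incubation: 30 min preincubation with enzyme, 25 min cleavage at room temperature. Measured by: fluorescence, ex 355 nm, em 460 nm. Read-out basis: percent inhibition. Control set: wells without proteasome as full block, compound-free enzyme plus substrate as uninhibited.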
Beta apoptosis: beta cell apoptosis inhibition; protection from apoptosis, % (no concentration beside the values); actives 0.8% (n = 300,000); INS-1E cytokine-induced death, ATP luminescence, 48 h; percent of positive-control rescue, neutral wells zero;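 active = all replicates at 75% or more, or half of them and the mean; inconclusive = half reach 75% but not the mean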;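 also: 0% = cytokine-treated negative control wells and 100% = positive control rescue; higher means more ATP so stronger rescue from cytokine killing; wells of about 40 µL received 100 nL stock; the first replicate is given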
FGF22 binding: binders of recombinant human FGF22 by thermal shift. Q9HCT0. SYPRO orange fluorescence; percent of sucrose octasulfate shift, DMSO zero. calls only at 9.99 µM. actives 1.5% (n = 340,000);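 active = melting point raised past a set limit in the mean and every replicate; inconclusive = no clear call; three in four hits are not shown here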
Target sequence (Q9HCT0 whole entry, looked up): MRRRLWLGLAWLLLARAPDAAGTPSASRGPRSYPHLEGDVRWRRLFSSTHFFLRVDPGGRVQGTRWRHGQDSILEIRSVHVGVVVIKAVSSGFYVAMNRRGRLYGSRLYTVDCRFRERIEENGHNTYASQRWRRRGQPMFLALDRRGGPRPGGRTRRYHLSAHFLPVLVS
Ecoli growth: blocks Escherichia coli growth | OD600, 23 h; stronger effect = lower value | OD600 absorbance (concentration not given with the values) | actives 0.21% (n = 330,000) | AID 1053175;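 active = OD600 absorbance below the run mean of sample wells minus 3.6 SD, in any replicate, cut at about 0.56 in these data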;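 also: stock transfer was 300 nL into about 60 µL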
T cruzi repl: T. cruzi replication inhibition; AID 1885; actives 1.4% (n = 300,000); inhibition, % (test concentration not listed); T. cruzi beta-gal in NIH3T3, luminescence, 90 h;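 active = mean inhibition across valid replicates above about 55%, limit read from the data; inconclusive = mean below that limit but half or more replicates reach it; inactive = mean below it, under half of replicates reach it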;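 also: signal also drops with host cell toxicity which is not excluded here; 0% = plate median of DMSO wells and 100% = zero luminescence signal; higher percent means less beta-gal luminescence so fewer parasites; stock transfer was 50 nL into about 50 µL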
Ecoli rRNA inh OD600: also measured in Ecoli rRNA inh; calls as there; OD600 change, %; measured here: OD600 growth;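 optical density of the mix in the first replicate; 0 = DMSO median and -100 = no signal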
Ecoli rRNA inh RFP: also measured in Ecoli rRNA inh; calls as there; RFP signal change, %; measured here: RFP humanized mutant strains;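 first replicate; 0 = DMSO median and -100 = no signal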
Starred values were filed as active, the others as inactive; i = inactive; ? = inconclusive; . = not tested or not shown; & = joins results of further samples. An excerpt; count on the stated rates, not on these rows.

SMILES | AF4-AF9 inh | Ecoli rRNA inh | Ecoli rRNA inh OD600 | Ecoli rRNA inh RFP | A1 inh | UCH37 inh | Beta apoptosis | FGF22 binding | Ecoli growth | T cruzi repl
COc1ccccc1N1CCN(c2ccc([N+](=O)[O-])cn2)CC1 | 13.0 | -20.9* | -16.6* | 3.8* | 0.9 | 6.4 | -1.5 | i | 0.685 | -3.4
O=C1C2ON(c3ccccc3)C(c3ccncc3)C2C(=O)N1c1ccc(Br)cc1 (centres undefined) | . | . | . | . | 0.8 | -0.9 | -4.4 | . | 0.675 | 11.8
COc1cccc(NC(=O)c2cc3ccccc3cc2OC)c1 | -5.2 | -16.1 | -6.3 | -0.8 | 0.0 | -3.0 | 8.1 | i | 0.655 | -5.5
O=C(CN1CCCCCC1)N1c2ccccc2Sc2ccccc21 | 7.8 | 4.3 | -6.9 | 1.5 | 0.1 | 2.3 | -0.6 | i | 0.692 | 19.3
CC(C)CC(COCc1cccc(Cl)c1)N1CCN(C(=O)c2cccc(C(F)(F)F)c2)CCC1=O (centres undefined) | -4.0 | -9.0 | -25.0 | 10.0 | -0.2 | -0.7 | -3.9 | i | . | 22.7
O=S(=O)(NC1CCCCC1N1CCN(c2cccc(Cl)c2)CC1)c1ccccc1 (centres undefined) | . | . | . | . | 2.0 | 2.0 | 24.8 | . | 0.68 | 32.2
COc1cc2c(cc1OC)C(c1ccncc1)CC(=O)N2 (centres undefined) | . | . | . | . | -0.5 | -0.2 | 5.1 | . | 0.78 | -43.1
CC(=O)Nc1ccc(S(=O)(=O)NCCC(=O)OCC(=O)NC(C)c2ccc(Cl)cc2)cc1 (centres undefined) | 1.3 | 1.5 | -6.5 | 0.8 | . | 1.2 | . | i | 0.683 | .
O=S(=O)(/C=C/c1ccccc1)N1CCN(c2ccc(F)cc2)CC1 | . | . | . | . | -0.4 | 1.0 | . | . | 0.699 | -15.3
FC(F)(F)c1nc2cc3nc4ccccc4[nH]c3cc2n1 | 1.2 | . | . | . | -6.2 | 7.2 | 13.7 | i | 0.678 | -11.7

Three compounds from above, sorted by the number in Ecoli rRNA inh, high to low.
SMILES,Ecoli rRNA inh
O=C(CN1CCCCCC1)N1c2ccccc2Sc2ccccc21,4.3
CC(=O)Nc1ccc(S(=O)(=O)NCCC(=O)OCC(=O)NC(C)c2ccc(Cl)cc2)cc1 (centres undefined),1.5
COc1ccccc1N1CCN(c2ccc([N+](=O)[O-])cn2)CC1,-20.9*

(continued)
SMILES | AF4-AF9 inh | Ecoli rRNA inh | Ecoli rRNA inh OD600 | Ecoli rRNA inh RFP | A1 inh | UCH37 inh | Beta apoptosis | FGF22 binding | Ecoli growth | T cruzi repl
COc1ccc(C2=CC(=O)C[C@H](c3ccc(Cl)cc3)C2)cc1 | 4.5 | -12.5 | -23.9 | -6.5 | -0.7 | 1.9 | 1.4 | i | . | .
Cc1cccc(NC(=O)c2ccc(N3CCOCC3)c([N+](=O)[O-])c2)n1 | 4.6 | -10.5 | -9.1 | -3.1 | -3.7 | 0.8 | -10.4 | i | 0.719 | 3.7
O=C1N=C(N2CCOCC2)S/C1=C/c1ccc(-c2ccc(F)cc2)o1 | 2.4 | -8.1 | 1.1 | 2.6 | 0.6 | -2.7 | 4.4 | i | 0.718 | 32.0
CCOc1ccc(C(c2c(C)[nH][nH]c2=O)c2c(C)[nH][nH]c2=O)cc1OCC | -0.9 | 6.1 | 6.6 | 0.0 | -0.6 | 8.0 | -5.7 | i | 0.702 | -7.6
COc1ccc(C(CNC(=O)c2oc3cc(C)c(Cl)cc3c2C)N2CCCCC2)cc1 (centres undefined) | . | . | . | . | 0.9 | 0.7 | -2.6 | . | 0.694 | -13.2
Cc1ccc(NC(/C=C/N(C)C)=C/C(=O)C(F)(F)F)c(C)c1 | 5.8 | -3.8 | -15.9 | -0.7 | -0.5 | 11.7 | -4.1 | i | 0.662 | 23.6
Cc1noc(NC(=O)c2ccccc2C(F)(F)F)c1C#N | -5.0 | 8.6 | 10.9 | 1.8 | 0.0 | 1.0 | -3.2 | i | 0.737 | -14.5
CCCNC(=O)C(Cc1ccc(F)cc1)NC(=O)c1ccc(C#N)cc1 (centres undefined) | -0.3 | 3.8 | 1.7 | -7.2 | -0.2 | 1.9 | 0.5 | i | 0.715 | .
CC1CCN(C(=O)CSc2nnc3c(n2)[nH]c2ccccc23)CC1 | -1.8 | 9.1 | 19.1 | 1.4 | 0.0 | 4.1 | 3.2 | i | 0.699 | 6.6
COCC1CCN(C(=O)C2CCC(=O)N(C3CCCC3)C2)CC1 (centres undefined) | -2.3 | 2.2 | 0.2 | 0.2 | -0.2 | -0.2 | -8.0 | i | 0.67 | 0.9

Brought forward from above: two entries, then new ones.
SMILES | AF4-AF9 inh | Ecoli rRNA inh | Ecoli rRNA inh OD600 | Ecoli rRNA inh RFP | A1 inh | UCH37 inh | Beta apoptosis | FGF22 binding | Ecoli growth | T cruzi repl
CC1CCN(C(=O)CSc2nnc3c(n2)[nH]c2ccccc23)CC1 | -1.8 | 9.1 | 19.1 | 1.4 | 0.0 | 4.1 | 3.2 | i | 0.699 | 6.6
COCC1CCN(C(=O)C2CCC(=O)N(C3CCCC3)C2)CC1 (centres undefined) | -2.3 | 2.2 | 0.2 | 0.2 | -0.2 | -0.2 | -8.0 | i | 0.67 | 0.9
Cc1cc(C)c2nc(-c3ccco3)cc(C(=O)O)c2c1 | -1.8 | 20.9 | 11.3 | 0.7 | . | i | . | i | 0.647 | -8.5
CCCCOP(=O)(OCCCC)C(O)c1ccc(F)cc1 (centres undefined) | . | 5.9 | 5.1 | 0.3 | -0.7 | 4.3 | -6.7 | i | 0.691 | -6.0
Nc1ccc(Sc2ccccc2Cl)nc1 | 2.0 | 33.2 | -17.4 | 10.1 | 0.0 | 5.9 | -8.9 | i | 0.687 | .
CC(C)CNC(=O)C1CC(=O)OC12CCCCC2 (centres undefined) | . | . | . | . | -0.2 | 0.5 | 5.2 | . | 0.696 | -4.3
COc1ccccc1CNC(=O)C1CC2Cn3c(nc4cc5ccccc5cc43)C2N1C (centres undefined) | 4.1 | -5.9 | -2.5 | -3.0 | 1.2 | -1.3 | 6.3 | i | 0.68 | -12.9
Cc1ccc(-c2cc(C(F)F)n3ncc(C(=O)NCc4ccco4)c3n2)cc1 | . | . | . | . | -0.6 | -71.8 | 14.4 | . | 0.751 | .
CCOC(=O)C1=C(C)N=C2SC(C(=O)OC)=CC(=O)N2C1c1cc(OC)c(OC)c(OC)c1 (centres undefined) | . | . | . | . | 0.1 | 1.2 | 2.0 | . | . | -22.8
COc1ccc(CCN2C(=O)CC(N3CCN(S(=O)(=O)c4ccccc4)CC3)C2=O)cc1 (centres undefined) | . | . | . | . | -0.2 | 6.1 | -2.9 | . | 0.787 | -0.2
CCN1CCN(CCC(=O)Nc2cc(OC)ccc2OC)CC1 | 2.2 | 11.8 | 0.4 | 7.0 | 0.4 | 1.7 | -2.4 | i | 0.645 | 3.5
COC(=O)c1cc(NS(=O)(=O)c2ccc(OC)c(OC)c2)ccc1Cl | . | . | . | . | 0.7 | 6.5 | -3.2 | . | 0.708 | -3.5
COc1ccc(CC(=O)N/N=C(\C)c2cccnc2)cc1 | 1.5 | 10.5 | 15.9 | -4.3 | 1.5 | . | -2.7 | i | . | -29.2
CC(C)n1c(NCc2ccc(N(C)C)cc2)nc2ccccc21 | . | . | . | . | 0.5 | 4.1 | 2.8 | . | 0.706 | 0.5
O=C(NCCCn1ccnc1)/C(=C\c1cccnc1)NC(=O)c1ccccc1F | -3.0 | 12.4 | 11.2 | 0.3 | 0.1 | 4.6 | 0.3 | i | 0.713 | -20.3
CCn1c(CC(=O)Nc2cccc(Cl)c2Cl)nnc1SCCOc1ccc(OC)cc1 | -14.2 | -19.5 | -23.6 | 14.8 | 0.2 | 4.8 | -1.5 | i | 0.728 | -6.1
Cc1ccccc1CC(=O)c1ccc(O)c(C)c1O | 5.0 | -57.8 | -78.2 | -25.6 | 0.7 | 1.3 | 5.2 | i | 0.669 | -2.9
C=CCOc1ccc(/C=N/Nc2ccccn2)cc1OC | 3.1 | 21.2 | 4.2 | 2.0 | -3.5 | . | -5.3 | i | . | 4.1
CSc1nnc(-c2cccn(Cc3cccc(Cl)c3)c2=O)o1 | 0.7 | 0.3 | -4.1 | 0.9 | 0.6 | i | -0.9 | i | 0.679 | 0.0
CC(=O)c1cc2c(cc1NC(=O)CCc1c(C)nc3ncnn3c1C)OCO2 | 8.3 | -0.1 | -3.1 | -1.5 | 1.3 | -6.2 | -3.4 | i | 0.653 | .
Cn1cnnc1Sc1ccc(/C=C(\CCC(=O)O)c2nc3ccccc3s2)cc1[N+](=O)[O-] | 0.8 | -17.9 | -4.4 | -14.2 | -0.2 | . | 8.3 | i | . | -13.0
COc1ccccc1NC(=O)Nc1nc(CC(=O)NC2CCCC2)cs1 | 0.4 | -8.2 | -9.4 | -1.5 | -1.4 | -1.3 | 2.3 | i | 0.631 | 16.6
CCOC(=O)c1cccc(NC(=S)NCc2ccc(C)cc2)c1 | 0.4 | -21.1 | -29.4 | -3.3 | -0.8 | 1.2 | -3.0 | i | 0.655 | .
O=C(Nc1ccc(N2CCOCC2)c(Cl)c1)c1c(F)c(F)c(F)c(F)c1F | . | . | . | . | -0.3 | 6.3 | -4.0 | . | 0.724 | -1.0
O=C(O)CCNC(=O)COc1ccc2c3c(c(=O)oc2c1)CCCC3 | -1.9 | 6.1 | 5.5 | 1.0 | ? | -58.2 | 2.1 | i | 0.668 | -8.7
Cc1cc(C(=O)CSc2nnc(-c3cccnc3)n2-c2ccccc2)c(C)n1CC1CCCO1 (centres undefined) | 4.7 | 30.2&3.8 | 8.7&10.5 | 3.4&2.5 | -1.9 | 5.7 | -7.7 | i | 0.689 | 11.1
COc1ccc(C(=O)Oc2ccc(C(=S)N3CCCC3)cc2)cc1OC | . | . | . | . | 1.0 | 2.7 | -4.3 | . | 0.657 | -15.2
C[C@H](O)Cc1cc2ccccc2c(=O)o1 | -13.1 | 10.9 | 9.2 | 0.3 | 0.9 | -0.5 | -9.0 | i | . | .
COc1ccccc1-c1ccc(NC2CCCC2)nn1 | . | . | . | . | 1.2 | -0.7 | 1.8 | . | 0.67 | -9.8
O=C(Oc1ccc2c3c(c(=O)oc2c1)CCCC3)c1cccs1 | -2.7 | -23.1 | -30.8 | -7.0 | 0.8 | -69.8 | 2.0 | i | 0.694 | -16.6
CCC(C)NC(=O)Cc1c(OC)ccc2cc(Br)ccc12 (centres undefined) | -5.7 | 9.6 | 3.4 | -1.2 | -0.2 | 3.4 | -5.7 | i | 0.712 | 6.3
Cc1ccc(C2CC(=O)NC(SCC(=O)OCc3ccccc3)=C2C#N)o1 (centres undefined) | . | . | . | . | 0.1 | 2.5 | -6.2 | . | 0.764 | -6.5
O=c1oc2cc(O)ccc2cc1-c1ccc(F)cc1 | . | . | . | . | -11.1 | i | -1.3 | . | 0.713 | -17.1
CNC(=O)COc1ccc(S(=O)(=O)N2CCCC2)cc1 | -0.2 | 11.5 | 9.7 | 5.2 | 0.7 | -0.1 | -1.5 | i | 0.658 | 11.7
